# Vero: Vero cell cytotoxicity, dose response, cytotoxicity control for Vif-APOBEC3G degradation inhibitor project, Vero cells (AID 1117358) | Vero viability, CellTiter-Glo ATP luminescence, 72 h; reference of the scale not given here | CC50 in µM for hits, for the others viability, % at the top dose, mostly 40 µM | actives 7% (n = 2,300);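 active = viability down to 80% or less at some dose; inactive = above 80% at all doses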
# Active calls of the source: *.
No.	smiles	Vero
1	Cc1ccc2nc(SCC(=O)N(CC(C)C)c3c(N)n(CC(C)C)c(=O)[nH]c3=O)[nH]c2c1	94%
2	CC1=C(C(=O)OC2CCCCC2)C(c2ccc(C)o2)C2=C(CCCC2=O)N1 (stereo unspecified)	90%
3	CCOc1cc(CNc2ccc(O)cc2)ccc1OCc1ccc(Cl)cc1Cl	>40µM*
4	O=C(O/N=C\c1ccc(N2CCCCC2)c([N+](=O)[O-])c1)c1c(F)cccc1F	96%
5	CCC(c1nnnn1C(C)(C)CC)N(CCCO)Cc1cc2cc(C)cc(C)c2[nH]c1=O (stereo unspecified)	95%
6	O=C(c1cc(-c2ccco2)on1)N1CCN(c2ccccc2)CC1	98%
7	O=C(c1ccco1)N(CCC(c1ccccc1)c1ccco1)Cc1ccc(F)cc1 (stereo unspecified)	>40µM*
8	CC1CCN(C(=O)CCc2nc3cc(S(=O)(=O)N(C)C)ccc3n2C)CC1	96%
9	O=C(CCCc1ccccc1)N1CCN(c2ccc([N+](=O)[O-])cc2)CC1	95%
10	CCOc1ccc(-n2c(Cc3cc(=O)[nH]c(=O)[nH]3)nnc2SC(C)C(=O)OC)cc1 (stereo unspecified)	94%
11	O=C(OCn1cncn1)c1ccc(Cl)cc1Cl	92%
12	CCCOc1ccc2[nH]cc(C(=O)O)c(=O)c2c1	98%
13	CC(=O)c1ccc2c(c1)C1C=CCC1C(c1ccncc1)N2 (stereo unspecified)	90%
14	CC(=O)NCc1c(Cl)cccc1-n1cccc1	97%
15	O=c1c2c(nc(NCCO)n1CC1CCCCC1)-c1ccccc1CC21CCCC1	>40µM*
16	Cc1ccc(C(=O)Oc2ccc(Cl)c3cccnc23)cc1[N+](=O)[O-]	86%
17	COc1ccc(OC)c(NC(=O)CSc2nnc(CCCO)n2-c2ccccc2)c1	97%
18	Cn1cnnc1SC/C(O)=C(\C#N)c1nc2ccccc2[nH]1	90%
19	CC1(C)CC(=O)C=C(Nc2ccccc2NC(=O)c2cnccn2)C1	91%
20	COc1ccc(S(=O)(=O)c2c(N)n(Cc3ccco3)c3nc4ccccc4nc23)cc1	89%
21	CN(CC(=O)NCCc1ccccc1)S(=O)(=O)c1cccs1	108%
22	Oc1ccc(-c2cn3c(n2)SCC3)cc1O	93%
23	CCC(C)(C)n1nnnc1C(c1cc2cc(C)ccc2[nH]c1=O)N1CCCc2ccccc21 (stereo unspecified)	105%
24	CCCc1ccc(-c2csc(NC(=O)Cc3cccs3)n2)cc1	95%
25	CC(=O)C1CCN(Cc2ccccc2)CC1	97%
26	COc1ccc(NC(=O)c2cccc(S(=O)(=O)Nc3ccc(Br)cc3)c2)cn1	23µM*
27	COC(=O)c1ccc(C)c(NS(=O)(=O)c2ccc(NC(C)=O)cc2)c1	89%
28	O=C(/C=C/Nc1ccccc1Br)c1ccccn1	95%
29	CCc1ccc(NC(=O)CCNS(=O)(=O)c2cccc3nonc23)cc1	102%
30	C=CCn1c(C)c(C(C)=O)c(N2CCN(c3ccccc3)CC2)nc1=S	108%

# Brought forward from above: five entries; new compounds follow.
No.	smiles	Vero
26	COc1ccc(NC(=O)c2cccc(S(=O)(=O)Nc3ccc(Br)cc3)c2)cn1	23µM*
27	COC(=O)c1ccc(C)c(NS(=O)(=O)c2ccc(NC(C)=O)cc2)c1	89%
28	O=C(/C=C/Nc1ccccc1Br)c1ccccn1	95%
29	CCc1ccc(NC(=O)CCNS(=O)(=O)c2cccc3nonc23)cc1	102%
30	C=CCn1c(C)c(C(C)=O)c(N2CCN(c3ccccc3)CC2)nc1=S	108%
31	CCOC(=O)N1CCC(NC(=O)c2cc3c(C)nc4ccccc4c3o2)CC1	102%
32	COc1cccc(-c2nnc(SCC(=O)OC(C)C)n2N)c1	102%
33	COc1ccc(CNc2ncnc(N)n2)cc1	81%
34	Cc1noc(/C=C/c2ccco2)c1S(=O)(=O)N1CCC(C(=O)N2c3ccccc3CC2C)CC1 (stereo unspecified)	40µM*
35	COc1ccc(-n2nc(C(=O)NCc3ccco3)c3ccccc3c2=O)cc1	92%
36	Nc1nc(SCc2nc(-c3ccccc3)no2)[nH]c(=O)c1-c1ccccc1	97%
37	Cc1nc(NC(=O)COC(=O)CCS(=O)(=O)c2ccccc2Cl)c(Cl)cc1Cl	92%
38	CCNC(=O)OCC(CC)NC(=O)OCC(C)C (stereo unspecified)	94%
39	COc1ccc2c(c1)C(=O)c1ccccc1CO2	97%
40	CCn1c(SCC(=O)n2nc(C)cc2C)nnc1-c1ccc2c(c1)OCO2	95%
41	O=C(CN1CCN(c2ccccc2O)CC1)Nc1ccc2c(c1)CCC2	99%
42	COc1ccc(OC)c(S(=O)(=O)Nc2cnc3ccccc3c2)c1	>40µM*
43	COc1ccc(NS(=O)(=O)c2cccc(Cl)c2Cl)cc1S(=O)(=O)N1CCCCC1	86%
44	Cc1ccccc1OCC(=O)NN1Cc2ccccc2C1=N	99%
45	COC(=O)C1=CN(CC2CCCO2)C=C(C(=O)OC)C1c1ccccc1C(F)(F)F (stereo unspecified)	90%
46	CN1CCc2nc3ccc(Cl)cc3c(-c3ccccc3Cl)c2C1	>40µM*
47	CCOC(=O)c1c(C)[nH]c(C)c1C(=O)COC(=O)c1cccc(S(=O)(=O)NC)c1	90%
48	CC1CCc2nc(NC(=O)c3ccco3)sc2C1 (stereo unspecified)	94%
49	O=C(c1ccc(=O)oc1)N1CCCc2ccccc21	89%
50	COc1ccc(C(=O)CSc2n[nH]c(N)n2)cc1	100%
51	CCc1c(O)nc(N2CCN(Cc3ccccc3)CC2)[nH]c1=O	103%
52	O=C(O)C1Nc2c(C(=O)N3CCOCC3)cccc2C2C=CCC12 (stereo unspecified)	93%
53	COC(=O)\C(C(C)=O)=C(/C=C/C=C/C=C/N(C)C)N(C)C	97%
54	Cc1cc(C)c([N+](=O)[O-])cc1-c1ccc(/C=N/NC(=O)c2nonc2N)o1	102%
55	COc1cccc(S(=O)(=O)N2CCN(c3ccccc3F)CC2)c1	87%
56	O=C(Nc1ccccc1)c1ccc2nc(-c3ccco3)c(-c3ccco3)nc2c1	>40µM*
57	COC(=O)c1ccc(Cn2c(C)cc(C)[n+]2C)o1	93%
58	O=C(Nc1cc(Cl)ccc1Oc1ccccc1)c1cnccn1	104%
59	COc1ccccc1N1CCN(C(=O)c2oc3cc(C)c(C)cc3c2C)CC1	109%
60	COc1cccc(-c2cc(C(=O)Nc3c(C)n(C)n(-c4ccccc4)c3=O)no2)c1	96%
61	CCN(CC)c1ccc2oc(=O)c(C)nc2c1	103%
62	Cc1cc(C)cc(Nc2ncc3c(n2)CC(c2ccco2)CC3=O)c1 (stereo unspecified)	98%
63	O=C(NCc1ccncc1)c1ccc(Cn2cc(C(F)(F)F)ccc2=O)cc1	97%
64	COc1cc(NC(=O)CS(=O)(=O)c2ccc(C)cc2)cc(OC)c1OC	92%
65	CCCn1c(Sc2nnnn2-c2ccccc2)n[nH]c1=O	126%
66	O=C(Cn1cc2c(n1)CCCC2)N1CCCc2ccccc21	106%
67	COc1ccc(NC(=O)/C(C#N)=C\c2cc(C)n(-c3ccc(Oc4ccc([N+](=O)[O-])cn4)cc3)c2C)cc1	101%
68	CCOC(=O)c1cc2sc(C)cc2n1CC(=O)N1CCN(C(=O)c2ccco2)CC1	94%
69	CCOc1ccc(C(=O)NC2CCN(S(=O)(=O)CC)CC2)cc1	100%
70	Fc1ccccc1/C=C1\CCCC2=C1Nc1ncnn1C2c1ccccc1F (stereo unspecified)	95%
71	CC(=O)Nc1cccc(C(=O)NC(C)c2ccc(S(N)(=O)=O)cc2)c1 (stereo unspecified)	104%
72	COc1ccc(-n2c(C)cc(C(=O)CSc3nn4c(=O)c(C(C)(C)C)nnc4s3)c2C)cc1	98%
73	COc1ccc(C)cc1NC(=O)c1[nH]c(C)c(C(C)=O)c1C	97%
74	O=C(Nc1cccc(C(F)(F)F)c1)c1cc(S(=O)(=O)N2CCCCC2)ccc1N1CCOCC1	91%
75	CCc1nc(-c2ccc(C)nc2OC)no1	101%
76	Cc1cccc(NC(=O)CC2NC3CCCCC3NC2=O)c1 (stereo unspecified)	93%
77	CCC(C)n1cnc2c(c1=O)c1nc3ccccc3nc1n2-c1ccc2c(c1)OCCO2 (stereo unspecified)	100%
78	CCOC(=O)c1cc2ccc(OC)c(OC)c2c(=O)s1	96%
79	COc1ccc(Br)cc1CNc1ccc(O)cc1	90%
80	CC(NCCO)C(=O)C12CC3CC(CC(C3)C1)C2 (stereo unspecified)	96%
81	CCOc1cc(S(=O)(=O)NCc2ccccn2)c(C)cc1C	94%
82	CCOc1cccc(NC(=O)C2CCCN(S(=O)(=O)c3ccc(OC)cc3)C2)c1 (stereo unspecified)	92%
83	CCOC(=O)C1CCN(S(=O)(=O)c2cccc(-c3cn4cccc(C)c4n3)c2)CC1	106%
84	O=C(c1cccs1)N1CCN(C/C=C/c2ccccc2)CC1	92%
85	CCOC(=O)N1CCC(N2C(=O)c3ccccc3C2Nc2ccccc2)CC1 (stereo unspecified)	98%
86	Cc1ccc(-c2c3c([nH]c(=S)c2C#N)CCCC3)o1	101%
87	CC(=O)c1cc2c(cc1NC(=O)CSc1nc3ccccc3o1)OCO2	94%
88	O=C(O)c1cccc(S(=O)(=O)Nc2ccccc2Cl)c1	95%
89	Cc1ccc(NC2=NCCCCC2)cc1C	101%
90	CS(=O)(=O)N1CCc2cc(C(=O)OCC(=O)c3ccccc3)ccc21	98%

# Next section:
No.	smiles	Vero
91	C=C1Cn2c(nnc2-c2ccc(Cl)cc2)S1	102%
92	CCC(=O)NNc1ncnc2ccccc12	94%
93	O=C1C(C=NC2CC2)=C(O)c2ccccc21	90%
94	CCOc1ccc(-n2c(=O)c3c(C)c(C)sc3n(CC(=O)NCc3ccco3)c2=O)cc1	99%
95	COc1ccc(OC)c(C2C(C(=O)c3cc4ccccc4o3)=C(O)C(=O)N2c2cc(C)on2)c1 (stereo unspecified)	90%
96	O=C(NCc1ccccc1)c1ccc2nc(-c3ccco3)c(-c3ccco3)nc2c1	97%
97	CCc1ccc(CCC(=O)Nc2ccc(S(N)(=O)=O)cc2)o1	93%
98	Cc1cc2ccccc2n1CCNC(=O)C1CCCCC1	92%
99	Cc1cc(C)nc(N2N=C(C(C)(C)C)CC2=O)n1	95%
100	O=C(NCCc1ccccc1)c1ccc2nc(-c3ccco3)c(-c3ccco3)nc2c1	91%
101	COc1ccccc1CNC(=O)CCS(=O)(=O)c1ccc2c(c1)CCCN2C(C)=O	92%
102	Cc1ccc2cccc(S(=O)(=O)N3CCN(c4ccccc4F)CC3)c2n1	82%
103	C=C(Cl)COc1ccc2c(CCC)cc(=O)oc2c1	>40µM*
104	COCC(=O)Nc1sc2c(c1C(=O)OC)C(C(=O)OC)CC2 (stereo unspecified)	102%
105	CCNC(=O)c1ccc(-n2nc(C(F)(F)F)c3c2CCCC3)cc1	96%
106	CCn1cc(C(=O)NCc2ccc3c(c2)OCO3)c2cc(OC)c(OC)cc2c1=O	95%
107	O=C1c2ccccc2C(=O)N1CCC(c1ccc(F)cc1)c1ccco1 (stereo unspecified)	105%
108	C#CC(=O)N(c1cc(OC)ccc1OC)C(C(=O)NC1CCCC1)c1cccs1 (stereo unspecified)	0.087µM*
109	Cc1sc(-c2ccccn2)nc1OC(=O)c1cccc(Cl)c1Cl	98%
110	CCS(=O)(=O)N1CCC(C(=O)NCc2cccc(OC)c2)CC1	99%
111	CCCc1cc(=O)[nH]c(SCC(=O)Nc2cc3c(cc2C(C)=O)OCO3)n1	86%
112	O=C(NCCc1ccncc1)Nc1ccccc1Cl	97%
113	O=C(NCc1cccnc1)c1cc(S(=O)(=O)N2CCCCC2)ccc1Cl	98%
114	CCc1ccc(NC(=O)C(C)Oc2nnc(-c3cccs3)c(-c3cccs3)n2)cc1 (stereo unspecified)	85%
115	CCCn1cnc2cc(NCc3ccccn3)ccc21	91%
116	CN(C1=C(NC(=O)c2ccc(Cl)cc2)C(=O)c2ccccc2C1=O)c1ccccc1	>40µM*
117	C#CC[N+]1(CC#Cc2ccccc2)CCCC1	92%
118	COc1ccc2[nH]c(=O)c(CN(Cc3ccco3)C(c3nnnn3Cc3ccccc3)C(C)C)cc2c1 (stereo unspecified)	113%
119	COc1cc(C(=O)OCC(=O)N2CCCC2)cc(OC)c1OC	95%
120	Cc1cccc(C)c1OCCOCCN1CCN(C)CC1	97%

# Four records picked at random from the list so far:
No.	smiles	Vero
97	CCc1ccc(CCC(=O)Nc2ccc(S(N)(=O)=O)cc2)o1	93%
105	CCNC(=O)c1ccc(-n2nc(C(F)(F)F)c3c2CCCC3)cc1	96%
107	O=C1c2ccccc2C(=O)N1CCC(c1ccc(F)cc1)c1ccco1 (stereo unspecified)	105%
100	O=C(NCCc1ccccc1)c1ccc2nc(-c3ccco3)c(-c3ccco3)nc2c1	91%

# (next part)
No.	smiles	Vero
121	CCOCCNC(=O)c1ccccc1C(=O)NCCOCC	101%
122	O=C(CCOc1ccccc1)NCC(c1ccco1)N1CCCCC1 (stereo unspecified)	98%
123	CCN1CCN(CCCNC(=O)c2ccc3c(c2)NC(=O)c2ccccc2S3)CC1	93%
124	Cc1ccccc1Cc1c(C)nc2c(C(=O)NCc3ccc4c(c3)OCO4)cnn2c1C	96%
125	CCn1c(SCC(=O)c2ccc(F)cc2)nnc1-c1ccoc1C	92%
126	COC(=O)c1ccc(COc2ccccc2/C=C(\C#N)C(=O)Nc2c(C)cc(C)cc2C)cc1	16µM*
127	CCCCCCCCNc1ncnc2ccccc12	>40µM*
128	Cc1nc2ccc(S(=O)(=O)N(C)CC(=O)N3CCc4ccccc43)cc2s1	100%
129	Cc1ccc(SCCNC(=O)c2cccc([N+](=O)[O-])c2C)cc1	92%
130	CC(/C=C1\SC(=S)N(CCCC(=O)Nc2ccc(C(=O)O)c(O)c2)C1=O)=C\c1ccccc1	90%
131	COc1cc(C(=O)Oc2cccc(Nc3ncnc4ccccc34)c2)cc(OC)c1OC	35µM*
132	COc1cc(OC)cc(C(=O)NC(=S)N2CCN(c3ccc(C(F)(F)F)cc3[N+](=O)[O-])CC2)c1	97%
133	CCOC(=O)C1CCN(Cc2cnc(Oc3ccc(OC)cc3)s2)CC1	102%
134	Cc1cc(C)c2nc(SCC(=O)NCCN3C(=O)CSC3=O)cc(C)c2c1	96%
135	CCOc1ccc(CNc2ccc(N3CCCC3)cc2)cc1	92%

# From PubChem

# The list is partial (hit frequency here may not be typical).
